Screening results as filed in PubChem.
SARS PLP yeast: SARS-CoV PLP inhibition in yeast; 330,000 compounds, 0.19% hits; Potency, µM (series often up to 32.9 µM), for the others: top-dose activity, positive = growth rescue; S. cerevisiae expressing SARS-CoV PLpro, growth rescue; control for the full effect not named in the record; active means well fitted rising curve with a large enough effect; inconclusive means small, poorly fitted or top-dose-only effect; inactive means no such curve, though single readings can be large or run the other way; further: 0% is about no effect; nearly all actives have a fitted effect of over 55% in size; growth read by luminescence after 48 h
Cruzain inh Det: cruzain (T. cruzi) inhibition with detergent; 200,000 compounds, 0.43% hits; purified cruzain, Z-FR-AMC fluorescence, 0.01% Triton; P25779; Potency, µM, without a hit: max response, negative = inhibition, most hits filed as inhibitors;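 further: plate controls were neutral wells for no effect and buffer without enzyme for full effect; nearly all actives have a fitted effect of over 40% in size; top concentration of the series not given in the record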
Target sequence (P25779 123-467 limits assumed): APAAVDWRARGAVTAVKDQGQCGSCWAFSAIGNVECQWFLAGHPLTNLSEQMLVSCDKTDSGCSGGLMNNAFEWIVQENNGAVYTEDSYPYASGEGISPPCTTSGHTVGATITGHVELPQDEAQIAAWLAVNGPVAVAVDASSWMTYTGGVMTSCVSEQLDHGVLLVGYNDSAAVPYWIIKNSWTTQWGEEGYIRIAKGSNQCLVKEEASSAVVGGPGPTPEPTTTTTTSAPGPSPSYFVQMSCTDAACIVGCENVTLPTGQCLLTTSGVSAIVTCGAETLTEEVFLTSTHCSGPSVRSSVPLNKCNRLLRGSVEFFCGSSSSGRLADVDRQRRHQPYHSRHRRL
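Detergent-containing arm of a paired screen for aggregation-based inhibition: 0.01% Triton X-100 present. Cruzain at 1.5 nM cleaved 2 uM Z-FR-AMC at pH 5.5 with 5 mM DTT; AMC fluorescence gain over 60 s measured activity.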
2A StopGo: FMDV 2A StopGo reporter, luciferase signal; human cells with a luciferase reporter of 2A StopGo recoding; control for the full effect not named in the record; Potency, µM (highest dose often 57.9 µM), for the others: at the highest dose signal change, negative = less light; 410,000 compounds, 1.2% hits; AID 1159524; active = well fitted falling curve with a large enough effect; inconclusive = small, poorly fitted or top-dose-only effect; inactive = no such curve, though single readings can be large or run the other way; tested in HEK293T cells; further: on the % scale 0 is the no-effect control and ±100 the full control effect; nearly all actives have a fitted effect of over 45% in size; luciferase light after 4 h
RE007 growth inh: less growth of the S. pombe RE007 Vpr strain. S. pombe RE007 Vpr strain, BacTiter-Glo ATP luminescence, 24 h; control for the full effect not named in the record. Potency, µM (titrated, usually from 92.2 µM), for inactives: top-dose activity change, negative = less growth. 360,000 compounds, 0.21% hits; active = well fitted falling curve with a large enough effect; inconclusive = small, poorly fitted or top-dose-only effect; inactive = no such curve, though single readings can be large or run the other way;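 further: on the % scale 0 is the no-effect control and ±100 the full control effect; nearly all actives have a fitted effect of over 50% in size; the assay follows cell death caused by Vpr and the record does not say whether a fall means rescue or toxicity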
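Fission yeast RE007 carrying one integrated HIV-1 vpr copy, seeded at OD 0.01 in PMG+AL medium with 23 nL pinned compound. Grown 24 h at 30 degrees; viability read by BacTiter-Glo luminescence after 5 min.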
Marburg entry inh: Marburg virus entry inhibition. Marburg virus pseudotyped entry inhibition, cell reporter; control for the full effect not named in the record; about a third of the inactives were read at about 46 µM. Potency, µM (titrated, usually from 37.8 µM), without a hit: at the highest dose activity change, negative = inhibition, most hits filed as inhibitors. 300,000 compounds, 1.8% hits. AID 540276; active = well fitted inhibition curve with a large enough effect; inconclusive = small, poorly fitted or top-dose-only effect, or effect the other way; inactive = flat fitted curve, though single readings scatter; tested in HEK293 cells; about a fifth of its hits are not listed in these tables; further: on the % scale 0 is the no-effect control and ±100 the full control effect; luciferase read-out
NS1 function inh: influenza NS1 inhibition. Potency, µM (top dose mostly 46.1 µM), for inactives: at the top dose activity, positive = more growth. 270,000 compounds, 0.4% hits. S. cerevisiae slowed by influenza A NS1, growth recovery by OD600; active means well fitted rising curve with a large enough effect; inconclusive means small, poorly fitted or top-dose-only effect; inactive means no such curve, though single readings can be large or run the other way; further: nearly all actives have a fitted effect of over 50% in size
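S. cerevisiae expressing influenza A NS1, grown in glucose, washed, then diluted 1:100 into pH 6.0 -URA galactose medium with 23 nl compound. Growth recovery read as OD600; NS1-free strain serves as control.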
Cruzain noTriton: inhibitors of Trypanosoma cruzi cruzain without detergent; AID 1476; 200,000 compounds, 2.3% hits; P25779; purified cruzain, Z-FR-AMC fluorescence, no detergent; Potency, µM, for inactives: max response, negative = inhibition, hits mostly inhibitors;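 further: plate controls were enzyme without inhibitor for no effect and buffer without enzyme for full effect; nearly all actives have a fitted effect of over 40% in size; top concentration of the series not given in the record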
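Purified cruzain at 1.5 nM, pre-incubated 15 min with compound at room temperature in 100 mM sodium acetate pH 5.5, 5 mM DTT, 0.00005% Triton X-100. Reaction started with 2 uM Z-FR-AMC; AMC fluorescence increase over 60 s gives rate.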
LASV entry inh: Lassa virus entry inhibition. Potency, µM (titrated, usually from 37.9 µM), for inactives: at the highest dose activity change, negative = inhibition, usual class: inhibitors. Lassa virus pseudotype entry inhibition, cell reporter; control for the full effect not named in the record. AID 540256. 300,000 compounds, 1.2% hits; active means well fitted inhibition curve with a large enough effect; inconclusive means small, poorly fitted or top-dose-only effect, or effect the other way; inactive means flat fitted curve, though single readings scatter; tested in HEK293 cells; further: on the % scale 0 is the no-effect control and ±100 the full control effect; nearly all actives have a fitted effect of over 50% in size; luciferase read-out
Numbers without * were called inactive; ? = inconclusive; . = no result given; [ ] = dose if it differs, or a comment. Unless noted, the call rests on the fitted dose curve; in most records, active means well fitted curve in the direction sought with a large enough effect; inconclusive means small, poorly fitted or top-dose-only effect, or another doubt; inactive means no such curve, though single readings can be large; an effect the other way counts as inactive or inconclusive. Potency means the concentration at half of the fitted maximal effect.

Order of results – Cruzain noTriton	SARS PLP yeast	RE007 growth inh	NS1 function inh	Marburg entry inh	Cruzain inh Det	LASV entry inh	2A StopGo
> Cc1ccc(-n2c(SCC(=O)NCc3ccccc3)nc3c([nH]c4ccccc43)c2=O)cc1
 : 9%	.	.	.	0%[46.1 µM]	0.3%	-25%[46.1 µM]	-8%
> COc1ccc(OC)c(C(=O)COC(=O)c2[nH]c(C)c(C(C)=O)c2C)c1
 : .	-6%	1%	.	-1%	.	-1%[46.1 µM]	-11%
> COc1ccc(S(=O)(=O)NCCCCCC(=O)NCCCN2CCOCC2)cc1
 : 3%	13%	-6%	5%	0%	2.1%	-20%	-5%
> COC(=O)C(Cc1ccc(O)cc1)NC(=O)C1CCN(S(=O)(=O)c2ccc(C)cc2)CC1 (stereo unspecified)
 : .	-1%	-11%	2%	3%[46.1 µM]	.	.	?
> Cc1[nH]c2ccccc2c1Cc1nnc(SCCC#N)o1
 : -1%	1%	-3%	3%	?	-3.1%	-1%	0%
> CCCCNS(=O)(=O)c1ccc2c(c1)oc(=O)n2CC(=O)OCC
 : 3%	0%	-7%	8%	9%	4.2%	.	29%
> CCc1ccc(C(=O)CSc2nc(-c3ccccc3)nc3c2CCCC3)cc1
 : -1%	.	.	.	?	-0.9%	12%[46.1 µM]	-13%
> CCCOc1ccc(C(=O)N(Cc2ccccc2Cl)C2CCS(=O)(=O)C2)cc1 (stereo unspecified)
 : 7%	.	.	.	-23%[46.1 µM]	-5.4%	11%[46.1 µM]	-8%
> CC(=O)Nc1ccc(NC(=O)CSc2ccc(-c3cccs3)nn2)cc1
 : .	0%	9%	.	?	.	13%[46.1 µM]	-12%
> COC(=O)c1ccc2c(=O)n(CCO)c(=S)[nH]c2c1
 : 5%	3%	-3%	4%	7%	1.6%	7%	-1%
> CC1=CC2=NC(=O)/C(=C\c3cccn3CCOc3cc(C)ccc3C)C(=N)N2O1
 : 2%	-17%	7%	23%	?	-3.9%	?	1%
> O=C(Cc1ccc(Br)cc1)N/N=C/c1ccc(-c2cccc(C(=O)O)c2)o1
 : .	0%	9%	1%	1%	.	-16%	9%
> Cc1cc(C(F)(F)F)nn1CC(=O)NNC(=S)NCC(C)C
 : -5%	11%	0%	7%	8%	4.3%	-29%	-5%
> COC(=O)c1ccc(NC(=O)N2CCN(Cc3cc(=O)n4nc(-c5ccc(C)cc5)sc4n3)CC2)cc1
 : -7%	.	.	.	.	3.9%	15%[46.1 µM]	6%
> Cc1cc(-n2nc(C)cc2C)nc(NS(=O)(=O)c2ccccc2)n1
 : -2%	6%	16%	-3%	5%[46.1 µM]	1.1%	-1%	20%

A second format for some results above:
| compound | Cruzain noTriton | SARS PLP yeast | RE007 growth inh | NS1 function inh | Marburg entry inh | Cruzain inh Det | LASV entry inh | 2A StopGo |
| --- | --- | --- | --- | --- | --- | --- | --- | --- |
| Cc1[nH]c2ccccc2c1Cc1nnc(SCCC#N)o1 | -1% | 1% | -3% | 3% | ? | -3.1% | -1% | 0% |
| CCCCNS(=O)(=O)c1ccc2c(c1)oc(=O)n2CC(=O)OCC | 3% | 0% | -7% | 8% | 9% | 4.2% | . | 29% |
| CCc1ccc(C(=O)CSc2nc(-c3ccccc3)nc3c2CCCC3)cc1 | -1% | . | . | . | ? | -0.9% | 12%[46.1 µM] | -13% |

New compounds follow.
Order of results – Cruzain noTriton	SARS PLP yeast	RE007 growth inh	NS1 function inh	Marburg entry inh	Cruzain inh Det	LASV entry inh	2A StopGo
> OCCN1CCN(Cc2cc(Cl)c3cccnc3c2O)CC1
 : 5%	18µM*	-4%	-50%	?	-7.4%	?	-10%
> COC(=O)c1ccccc1NC(=O)C1CCCN(S(C)(=O)=O)C1 (stereo unspecified)
 : 13%	3%	10%	?	-1%	5.6%	11%	-16%
> COc1cccc(OCc2nc3ccccc3n2CCOc2cccc(C)c2)c1
 : 2%	.	.	.	-20%[46.1 µM]	-9.4%	1%[46.1 µM]	19%
> N#Cc1cc(N2CCCCC2)c([N+](=O)[O-])cc1C#N
 : -5%	11%	17%	1%	3%	-2.8%	2%	0%
> O=C(NCCC(=O)N1CCN(c2ncccn2)CC1)c1ccccc1Cl
 : 1%	-16%	-4%	2%	8%	1.4%	8%	-8%
> O=C(Oc1ccc(-n2cnnn2)cc1)c1ccco1
 : 1%	2%	3%	-10%	13%	4.3%	-12%	11%
> COC(=O)c1c(C(=O)OC)c2n(c1C)CCS2
 : .	0%	3%	3%	-3%	.	-2%	-3%
> CC(C)CNS(=O)(=O)c1ccc(CCC(=O)NCCc2ccccc2)cc1
 : .	-3%	-5%	-4%	-2%[46.1 µM]	.	-15%[46.1 µM]	28%
> O=c1cc2c(nn1Cc1c(Cl)cccc1Cl)-c1ccccc1CC2
 : 4%	-11%	-8%	-1%	?	-5.5%	0%	-25%
> CCOCC(O)CNC(=O)c1ccc2nc(Cc3ccc(OC)c(OC)c3)oc2c1 (stereo unspecified)
 : .	2%	-17%	-5%	?	.	21%[46.1 µM]	-17%
> NC(=O)CS(=O)(=O)c1nc2ccccc2n1CC(=O)N1CCCCC1
 : 4%	1%	10%	-7%	?	5.5%	?	4%
> NCCN=C1NS(=O)(=O)c2ccccc21
 : -6%	25%	-7%	-21%	-1%	-3.1%	18%	0%
> CCCCn1c(=O)c(C(=O)Nc2ccccc2S(N)(=O)=O)c(O)c2ccccc21
 : -14%	0%	-18%	-24%	-7%	1.1%	-3%	-11%
> O=c1c(Cl)c(N2CCCCC2)cnn1-c1nc2ccccc2[nH]1
 : -10%	-23%	-14%	-12%	?	-3.9%	?	?
> CCC(Oc1ccc(F)cc1)C(=O)Nc1c(C(=O)c2ccc(C)cc2)oc2ccccc12 (stereo unspecified)
 : -1%	.	.	.	?	-1.2%	3%[46.1 µM]	-21%

Remaining list, next part:
Order of results – Cruzain noTriton	SARS PLP yeast	RE007 growth inh	NS1 function inh	Marburg entry inh	Cruzain inh Det	LASV entry inh	2A StopGo
> COC(=O)C1=C(C)NC(C)=C(C(=O)OC)C1c1cc2cc(C)ccc2[nH]c1=O
 : -3%	1%	3%	2%	?	-7.1%	9%	-23%
> OCC(O)C1OC(Nc2ccc(Cl)cc2)C(O)C1O (stereo unspecified)
 : .	-3%	17%	?	.	.	.	-16%
> CC1CCN(S(=O)(=O)c2ccc3c(c2)N(CC(=O)NCCN2C(C)CCCC2C)C(=O)CS3)CC1 (stereo unspecified)
 : .	1%	13%	-7%	.	.	.	9%
> Cc1nc2cc(-n3ccc(=O)cc3)ccc2n1-c1ccccc1
 : -11%	4%	-2%	-7%	-16%	5.0%	1%	.
> CC(C)c1cc(N2CCOCC2)n2ncc(-c3ccccc3)c2n1
 : .	0%	28%	-3%	-1%	.	?	-1%
> COc1ccc(S(=O)(=O)N2CCC(Cc3ccccc3)CC2)cc1C(N)=O
 : .	0%	-3%	2%	.	.	.	-26%
> CC(=O)Nc1ccc(Nc2cc(C)nc3c(-c4ccc(Cl)cc4)cnn23)cc1
 : ?	-53%	11%	-5%	?	-16%	?	11%
> CC(C)Oc1cc(NC(=O)CS(=O)CC(=O)N(C)C)c(Cl)cc1Cl (stereo unspecified)
 : .	0%	2%	1%	3%[46.1 µM]	.	-28%[46.1 µM]	4%
> CCOC(=O)C1=C(C)N=c2sc(=C(C)C)c(=O)n2C1c1ccc(N(C)C)cc1 (stereo unspecified)
 : .	.	-3%	.	?	.	-9%	7%
> O=C(CCC(=O)c1cccs1)NCC(=O)Nc1ccc(F)c(F)c1F
 : -14%	?	3%	6%	9%	-3.5%	-3%	-20%
> CC(CCc1ccccc1)NS(=O)(=O)c1ccccc1F (stereo unspecified)
 : .	0%	1%	-31%	?	.	-1%[46.1 µM]	10%
> COc1ccc(NS(=O)(=O)c2cccc(NC(=O)CCC(=O)c3cccs3)c2)cc1
 : 9%	1%	3%	-1%	1%	-7.3%	10%	43%[activator]
> O=C(c1c(F)cccc1Cl)N1CCN(c2ccccn2)CC1
 : .	-14%	-9%	-1%	0%[46.1 µM]	.	0%[46.1 µM]	1%
> COc1ccc(NC(=O)C2CC(=O)N(CCc3ccc(F)cc3)C2)c(OC)c1 (stereo unspecified)
 : .	4%	8%	-5%	-7%[46.1 µM]	.	?	-3%
> O=C(O)/C=C/C(=O)Nc1ccc(SC(F)(F)F)cc1
 : 0%	3%	12%	-6%	2%	-1.1%	?	-14%

Remaining list, next part
Order of results – Cruzain noTriton	SARS PLP yeast	RE007 growth inh	NS1 function inh	Marburg entry inh	Cruzain inh Det	LASV entry inh	2A StopGo
> Cc1nn(C)c(C(=O)NC2C3CC4CC(C3)CC2C4)c1Cl (stereo unspecified)
 : 14%	1%	-3%	-30%	-20%	-4.0%	0%	-21%
> O=C(CSc1ccc2nnc(-c3ccccn3)n2n1)Nc1cccc(F)c1
 : .	-9%	-3%	12%	?	.	3%	-17%
> CNC(=O)COc1coc(CN2CCN(c3ccccc3F)CC2)cc1=O
 : .	4%	7%	2%	?	.	1%[46.1 µM]	-8%
> COc1ccccc1-c1cc(C(=O)Nc2cc(C)on2)no1
 : 1%	3%	-11%	-10%	-4%	0.2%	-29%	36%[activator]

Among those listed so far, these have a COOH group:
Order of results – Cruzain noTriton	SARS PLP yeast	RE007 growth inh	NS1 function inh	Marburg entry inh	Cruzain inh Det	LASV entry inh	2A StopGo
> O=C(Cc1ccc(Br)cc1)N/N=C/c1ccc(-c2cccc(C(=O)O)c2)o1
 : .	0%	9%	1%	1%	.	-16%	9%
> O=C(O)/C=C/C(=O)Nc1ccc(SC(F)(F)F)cc1
 : 0%	3%	12%	-6%	2%	-1.1%	?	-14%
